Assay outcomes deposited in PubChem BioAssay by National Center for Advancing Translational Sciences (NCATS).
NPR1 antag – Natriuretic polypeptide receptor (hNpr1) antagonism - Primary qHTS; HEK293 hNpr1 GloSensor cGMP, ANP-stimulated luminescence; Potency, µM (top dose mostly 46.3 µM), inactives show at the top dose activity change, negative = inhibition, actives largely listed as inhibitors; hit rate 1.6% among 76,000; active = well fitted inhibition curve with a large enough effect; inconclusive = small, poorly fitted or top-dose-only effect; inactive = no such curve, though single readings can be large or run the other way;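 note: nearly all actives have a fitted effect of over 60% in size; nearly all hits also lower the signal before the agonist is added; a reference antagonist and vehicle were the controls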
Target sequence (P16066 whole entry, looked up): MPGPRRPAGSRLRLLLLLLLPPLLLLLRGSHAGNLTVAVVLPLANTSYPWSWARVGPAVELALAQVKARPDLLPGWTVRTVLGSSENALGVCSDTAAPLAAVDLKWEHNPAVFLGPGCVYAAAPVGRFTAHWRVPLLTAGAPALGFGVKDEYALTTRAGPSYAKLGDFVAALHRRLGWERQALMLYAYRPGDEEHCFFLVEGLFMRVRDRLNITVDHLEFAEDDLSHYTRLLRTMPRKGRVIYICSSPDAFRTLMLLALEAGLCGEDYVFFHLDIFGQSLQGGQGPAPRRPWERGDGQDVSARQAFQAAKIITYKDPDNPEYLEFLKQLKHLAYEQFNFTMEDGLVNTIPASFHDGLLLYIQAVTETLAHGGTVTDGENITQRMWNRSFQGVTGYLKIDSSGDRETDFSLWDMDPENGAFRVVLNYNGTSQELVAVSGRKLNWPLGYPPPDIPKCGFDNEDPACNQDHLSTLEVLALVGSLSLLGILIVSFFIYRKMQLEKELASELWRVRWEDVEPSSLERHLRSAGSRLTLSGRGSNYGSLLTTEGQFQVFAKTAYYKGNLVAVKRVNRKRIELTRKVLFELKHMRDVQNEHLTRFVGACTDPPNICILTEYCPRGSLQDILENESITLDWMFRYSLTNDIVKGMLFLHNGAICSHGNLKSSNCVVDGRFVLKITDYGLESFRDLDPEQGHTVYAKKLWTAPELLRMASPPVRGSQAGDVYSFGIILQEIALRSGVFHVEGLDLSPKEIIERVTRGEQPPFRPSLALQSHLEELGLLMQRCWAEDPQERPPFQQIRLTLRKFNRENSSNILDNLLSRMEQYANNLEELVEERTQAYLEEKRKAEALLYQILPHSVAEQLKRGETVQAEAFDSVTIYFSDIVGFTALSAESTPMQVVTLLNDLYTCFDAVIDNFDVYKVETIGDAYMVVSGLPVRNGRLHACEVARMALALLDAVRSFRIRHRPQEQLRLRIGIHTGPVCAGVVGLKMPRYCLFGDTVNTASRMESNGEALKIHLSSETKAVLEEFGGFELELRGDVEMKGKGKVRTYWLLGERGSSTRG
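HEK293 cells stably expressing human Npr1 and cGMP GloSensor pGS-40F, loaded 2 h with 2% GloSensor reagent, given compound 30 min at room temperature. Luminescence read before and 20 min after 0.1 nM hNppA.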
* = called active by the depositor; ? = inconclusive; & = joins results of further samples; [ ] = another dose, or the depositor's remark. % is set by controls: 0 for no effect and ±100 for the full control effect; potency is the fitted concentration of half-maximal effect. Some of the compounds tested, so the mix of outcomes need not match the whole.

SMILES	NPR1 antag
O=C1NCCOCCCN(C(=O)C2CC2)[C@H]2CCCC[C@@H]12	0.0%
Cc1cccc(OC[C@H]2C[C@@H](NCc3nccn3C)[C@H](O)[C@@H]2O)n1	-1.5%
Cn1cnc(S(=O)(=O)N2CCC(Oc3ncccc3C(=O)N3CCOCC3)C2)c1 (centres undefined)	1.5%
COc1ccc(OCC(=O)N2CCCC3(C2)Nc2cccnc2NC3=NC2CCCC2)cc1 (centres undefined)	5.4%
Fc1ccccc1CN1CCNc2cnc(Oc3ccccc3)cc2C1	-3.7%[70.6 µM]
COc1ccc(NC(=O)c2ccc3c(c2)N(C)C2CCCN2C3=O)cc1OC (centres undefined)	0.2%
Cc1cc(C)cc(N2CCN(c3cc(C4CC(O)C4)nc(C)n3)CC2=O)c1 (centres undefined)	4.9%
COc1ccc(CNC(=O)CCn2ccn3nc4c(c3c2=O)CCCC4)cc1	-0.7%
O=S(=O)(NC[C@@H]1CCNC[C@H]1O)N1CCCCCC1	4.5%
COc1ccc(CCCN2C(=O)O[C@@H]3CN(S(=O)(=O)N4CCCC4)C[C@@H]32)cc1	-0.2%
CN(C)C[C@@H]1CN(c2ncccn2)C[C@H]1NC(=O)c1cnccn1	3.2%
CN(C(=O)c1ccc(C(F)(F)F)cc1)C1CCOc2ccccc21 (centres undefined)	26.5%[70.6 µM]
Cc1ccc(CNC(=O)N2C[C@@H](F)C[C@H]2C(=O)N2CCCCC2)cc1	-1.3%
Cc1ccc2nc([C@H]3CCN(Cc4ccc(S(C)(=O)=O)cc4)C3)[nH]c2c1	-17.4%[70.6 µM]
O=C1NCCN2CC3(CCN(S(=O)(=O)c4ccc5c(c4)OCCO5)CC3)CC12 (centres undefined)	-10.5%
COCCNC(=O)[C@@H]1CCC[C@@H](NCc2nccn2C)CN(C)C(=O)C1	0.7%[70.6 µM]
COCc1ccc2c(c1)c(OC(C)(C)C(=O)NCC1CC1)nn2Cc1ccccc1	4.6%[70.6 µM]
COc1cc(NC(=O)Cn2c(-c3cnccn3)nc(C)c(C)c2=O)cc(OC)c1OC	-19.2%
COc1ccc(Nc2cc3c(cn2)CN(CCc2ccccc2)CCN3)cc1OC	-5.0%[70.6 µM]
O=S(=O)(c1cc(F)ccc1F)N1CCC(C2CCNC2)CC1 (centres undefined)	11.7%
COc1ccc(C(=O)NC2CCCc3c2[nH]c2ccccc32)cc1OC (centres undefined)	-11.9%
CCC(=O)Nc1cc(C(=O)NCc2ccc(N3CCOCC3)cc2)c2ccc(C)nc2c1	2.4%
Cc1cc2nc3n(c(=O)c2n1CC(=O)Nc1ccc(F)c(Cl)c1)CCC3	0.0%
CC(C)CN1CCN(C(=O)CCC[C@@H]2[C@H]3CCCN4CCC[C@@H](CN2C(=O)c2ccccc2)[C@@H]34)CC1	3.5%
O=C(c1ccccc1F)N1CCC(c2nn(Cc3ccccc3)c(=O)[nH]2)CC1	0.0%
CN(C)Cc1nnc(C2CC(NC(=O)c3cn(-c4ccccc4)nn3)C2)n1C (centres undefined)	0.7%
O=C(CCCc1ccccc1)N1CCC2(CC1)CC(Cc1nc(-c3cccnc3)no1)CCO2 (centres undefined)	15.8µM*
COc1ccccc1CN1CCc2ncc(C(=O)NCCC(C)C)n2CC1	-11.6%[70.6 µM]
O=C1CCN(S(=O)(=O)c2ccccc2)CCCN(C(=O)C2CC2)CCN1	-1.4%
Fc1ccccc1Nc1cnc2ccc(-c3ccccc3)nn12	-8.2%[70.6 µM]
CC1CCCN1c1ccc(C(=O)N2CCC(Oc3cccnc3)CC2)cn1 (centres undefined)	0.7%
CC(C)c1cc(C(=O)N2CCN(c3ncccc3C#N)CC2)n(C)n1	5.6%
O=C(Nc1cccc(Cl)c1)[C@@H]1C[C@@H](c2ccc(F)cc2)N([S+](=O)([O-])c2ccccc2)C1	-6.1%
COc1ccc(-c2cc(N3CCCN(C(=O)c4cccc(F)c4)CC3)n[nH]2)cc1	-0.7%
O=C(O)C[C@@H]1CCN(C(=O)C2CCCC2)C[C@@H]1CCN1CCN(c2cccc(C(F)(F)F)c2)CC1	-1.0%
c1ccc(N2CCN(C3CCCN(Cc4cn[nH]c4C4CCCCC4)C3)CC2)cc1 (centres undefined)	-0.7%
Cc1cnc(CCNC(=O)C2CCOCC2)n1C(C)C	0.6%
COCCN1CCN(C(=O)CC(c2ccccc2)c2ccc(Cl)cc2)CC1 (centres undefined)	-9.1%
CN1C(=O)CS(=O)(=O)C12CCN(C(=O)c1ccncc1)CC2	0.0%
CCn1c(CN(C)Cc2nc3c(C)cccc3[nH]2)nnc1C1CC(N)C1 (centres undefined)	3.5%
CSc1ccc(CNC(=O)c2noc(-c3ccc(C)cc3)n2)cc1	4.4%
O=C(NCC1CCCO1)C1COC2(CCN(C(=O)c3ccccc3F)CC2)N1C(=O)c1ccccc1 (centres undefined)	2.4%
Cc1cc(C(=O)NCC23CCCC=C2NC(=O)CC3)n(C)n1 (centres undefined)	-3.7%
O=C(c1cccnc1)N1CCC2(CC1)CC(N(Cc1ccc(F)cc1)C1CC1)CCO2 (centres undefined)	-15.1%
Fc1ccc(-c2[nH]ncc2CN(Cc2cccnc2)Cc2cccnc2)cc1	-6.7%
O=C(CC1CCCCC1)NC1CCN(C(=O)N2CC3CC(C2)[C@H]2CCCC(=O)N2C3)CC1 (some centres undefined)	6.5%
N#Cc1ccc(C2c3nc[nH]c3CCN2Cc2ccc3ccccc3n2)cc1 (centres undefined)	2.3%
CCN(Cc1nccn1C)C(=O)c1ccc(NC[C@H]2C[C@H]3C=C[C@H]2C32CC2)nc1	8.0%
COc1ccc(-c2noc(-c3nc(-c4ccccn4)no3)n2)cc1	0.1%
COc1ccccc1C1NC(=O)N(CC(=O)N2CCCC2)C2=C1C(=O)OC2 (centres undefined)	7.3%
CC(C(=O)NCCc1ccccc1)N1C(=O)COc2ccc(C(=O)COc3cccc(Cl)c3)cc21 (centres undefined)	-20.9%
CC(=O)N1CCC(Oc2ccc(Cl)cc2C(=O)N(C)Cc2csc(C)n2)CC1	-2.4%
COCC(=O)N1CCN(C(=O)c2cccc(F)c2)C[C@H]1C(=O)OC	-0.1%[70.6 µM]
C=CCn1cc2c3c(cccc31)[C@H](CC(C)C)N[C@H](C(=O)NCCCN1CCCC1=O)C2	0.9%
Cc1ccsc1-c1[nH]nc2ncc(-c3ccccc3O)nc12	-21.8%[70.6 µM]
C=CCNC(=O)C(NC(=O)c1ccc2c(c1)OCO2)C1CCN(C(=O)c2cccc(F)c2)CC1 (centres undefined)	5.5%
CCOC(=O)C1CCN(C(=O)C2(c3ccc(NS(C)(=O)=O)cc3)CCCCC2)CC1	-2.1%
CCOC(=O)c1ccc(NC(=O)CN2C(=O)NC3(CCS(=O)(=O)CC3)C2=O)cc1	-0.3%
CN(C)c1ccc(NC(=O)Cn2cccc2-c2nc(-c3ccc4c(c3)OCO4)no2)cc1	-3.7%
CC(C)CN1C(=O)c2ccccc2C(C(=O)Nc2nccs2)C12CCCC2 (centres undefined)	-5.8%

Next part (two carried over from the part before).
SMILES	NPR1 antag
CN(C)c1ccc(NC(=O)Cn2cccc2-c2nc(-c3ccc4c(c3)OCO4)no2)cc1	-3.7%
CC(C)CN1C(=O)c2ccccc2C(C(=O)Nc2nccs2)C12CCCC2 (centres undefined)	-5.8%
COc1ccc(-c2[nH]nc3ncc(C(=O)N(C)c4cccnc4)nc23)c(C)c1	-10.2%[70.6 µM]
CCN(CC)C(=O)Cn1ccn2nc(-c3ccccc3)c(CO)c2c1=O	2.1%
CN[C@@H](C)C(=O)N1CC[C@H](NC(=O)c2ccncc2)C[C@H]1C(=O)N[C@@H](Cc1ccc(OC)cc1)C(N)=O	0.3%
O=C1CCN(S(=O)(=O)c2ccccc2)CCCN(C(=O)COc2ccccc2)CCN1	8.1%
COc1ccc(-c2noc([C@@H]3CCCN3C(=O)c3ccc(C#N)cc3)n2)cc1OC	1.7%
CN(C)C(=O)c1ccn2nccc2c1	12.2%[70.6 µM]
CN(Cc1ccc(F)cc1)Cc1ccccc1C(F)(F)F	-11.0%&0.0%[70.6 µM]
Cc1cccc(OCCc2noc(C3CCN(C(=O)c4cc(C)nn4C)C3)n2)c1 (centres undefined)	-4.7%
COc1ccccc1C(=O)NC1CCN(c2cc(-c3cccs3)[nH]n2)C1 (centres undefined)	-13.2%
Cn1cnc2ccc(-c3cccc(O)c3)nc2c1=O	-0.2%[70.6 µM]
CC(C)c1noc(-c2cn(C3CCN(C(=O)c4ccc(Cl)cc4)C3)nn2)n1 (centres undefined)	-10.0%
c1ccc(CN2CCN(c3nccc(-c4ccncc4)n3)CC2)nc1	9.3%
COCCOC1CCOC2(CCN(C(=O)Cc3ccccc3F)CC2)C1 (centres undefined)	6.8%
CN(C)C[C@H]1O[C@H](Cc2cc(CN3CCOCC3)on2)CC[C@@H]1O	6.0%[70.6 µM]
O=C(NCCc1ccccc1)c1ccc(N2CC3CC(C2)[C@H]2CCCC(=O)N2C3)nc1 (some centres undefined)	-0.3%
O=C(C1CCC1)N1CCC2(CC1)CC(N(Cc1ccccc1)C1CC1)CCO2 (centres undefined)	14.9%
O=S(=O)(N[C@H]1CO[C@H]2[C@@H]1OC[C@@H]2n1cc(-c2ccccn2)nn1)c1cccc2cccnc12	?
COc1ccc(CNC(=O)C[C@@H]2CCNC[C@@H]2Cc2cc(CC3CCCCC3)on2)cc1	?
CC(=O)NC(CO)C(=O)N1CCc2c(nc(-c3cccnc3)nc2N(C)C)C1 (centres undefined)	4.7%
CCS(=O)(=O)N(C1CC1)C1CCOC2(CCN(C(=O)Cc3cccc(F)c3)CC2)C1 (centres undefined)	-2.5%
COc1ccc(NC(=O)c2cc3c(N4CCSCC4)nc(C)cn3n2)c(OC)c1	4.1%
O=C1CO[C@H]2CN(Cc3ccc(C(F)(F)F)cc3)C[C@H]2N1	5.2%[70.6 µM]
Fc1ccccc1OCC1CCCN(c2nccc(-c3cccnc3)n2)C1 (centres undefined)	-0.5%
CN(Cc1ccccn1)C1CCCc2ccccc21 (centres undefined)	29.9%[70.6 µM]
O=C1CO[C@H]2CCN(Cc3ccccc3O)CC[C@@H]2N1c1ccccc1	-0.6%[70.6 µM]
CCn1cc(-c2cc3c(cn2)CN(Cc2cccnc2)CCN3)cn1	1.7%[70.6 µM]
CC(=O)Nc1ccccc1-c1c(C)nn2c1N(Cc1ccccc1)CCC2	-2.5%[70.6 µM]
Cc1ccc(-n2c(C3CCN(C(=O)c4ccccc4F)CC3)n[nH]c2=O)cc1	-1.7%
O=C(Nc1ccc([C@H]2OCC(=O)N(C3CCOCC3)[C@@H]2CO)cc1)c1cnccn1	4.5%[70.6 µM]
CC(C)NC(=O)NC[C@H]1O[C@@H](CO)[C@@H](O)[C@H]1N1CCN(C)CC1	0.9%[70.6 µM]
COCC(=O)N1CC(Oc2ccc(-c3noc(-c4ccncc4)n3)cc2)C1	?
Cc1ccsc1-c1[nH]nc2ncc(-c3ccccc3)nc12	-11.2%[70.6 µM]
O=C(O)c1cnc(NCc2ccncc2)nc1-c1ccccc1	4.8%
COc1ccccc1C(=O)N1CCCC2(COc3ccccc3C(=O)N2)C1 (centres undefined)	?
COc1cccc(CCC(=O)NCc2nnc3c(-c4nc(C)no4)cccn23)c1	-3.2%
Cn1c(=O)c2ccnn2c2ccc(C(=O)NCCN3CCC(N4CCCCC4)CC3)cc21	1.3%
Cc1cccc(CN2CCCC(O)(CNCc3cccc(C)n3)C2=O)c1 (centres undefined)	7.7%
CCc1noc(-c2cn(C3CCN(C(=O)Cc4ccc(F)cc4)CC3)nn2)n1	-5.2%
CCc1cccc(NC(=O)Cn2c(N3CCOCC3)nc(COC)cc2=O)c1	-2.0%
CC1(C)CC(CCNc2ncncn2)(c2ccccc2)CCO1 (centres undefined)	1.1%
CC(C)NC(=O)c1ccc2c(c1)N(C(=O)c1ccc(F)cc1)CC2	4.8%
COc1cccc(-c2cn3c(n2)N(C(=O)c2ccco2)CCC3)c1	-0.2%
Nc1nc(C(=O)N[C@H]2CCOC[C@H]2C2CCOCC2)cs1	5.6%
Cc1cc2c(NC3CC(c4nnc(CN(C)C)n4C)C3)ncnc2s1 (centres undefined)	-13.3%
c1cncc(-c2nc(CC3CCCNC3)no2)c1 (centres undefined)	-9.4%

Looked up by structure from above (2):
SMILES	NPR1 antag
CC1(C)CC(CCNc2ncncn2)(c2ccccc2)CCO1 (centres undefined)	1.1%
COCC(=O)N1CC(Oc2ccc(-c3noc(-c4ccncc4)n3)cc2)C1	?

Next part.
SMILES	NPR1 antag
Fc1ccc2nc([C@H]3CCN(C4CCC4)C3)[nH]c2c1	39.8µM*
O=C(NCc1ccccc1)N1CCC2(CC1)CC(N(C(=O)c1ccccc1)C1CC1)CCO2 (centres undefined)	-15.6%
O=C(NCc1ccccc1F)c1ccc(-c2ccc(N3CCSCC3)nc2)cc1	-21.2%
CC1(COc2ccccc2)COc2ccc(C(=O)NCc3ccncc3)cc2N1 (centres undefined)	?
O=C(NCC1CC1)c1nc2sccn2c1Br	33.0%[activator][70.6 µM]

Shown as comma-separated lines: part of the list above
structure,NPR1 antag
CC1CCCN1c1ccc(C(=O)N2CCC(Oc3cccnc3)CC2)cn1 (centres undefined),0.7%
CC(C)c1cc(C(=O)N2CCN(c3ncccc3C#N)CC2)n(C)n1,5.6%
O=C(Nc1cccc(Cl)c1)[C@@H]1C[C@@H](c2ccc(F)cc2)N([S+](=O)([O-])c2ccccc2)C1,-6.1%
COc1ccc(-c2cc(N3CCCN(C(=O)c4cccc(F)c4)CC3)n[nH]2)cc1,-0.7%
O=C(O)C[C@@H]1CCN(C(=O)C2CCCC2)C[C@@H]1CCN1CCN(c2cccc(C(F)(F)F)c2)CC1,-1.0%
c1ccc(N2CCN(C3CCCN(Cc4cn[nH]c4C4CCCCC4)C3)CC2)cc1 (centres undefined),-0.7%
